Screening results deposited in PubChem BioAssay by several laboratories.
PKD1 inh: inhibitors of human PKD1 kinase, biochemical, fluorescence polarization | inhibition, %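 (about 10 µM by stock and volumes)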 | Serine/threonine-protein kinase D1 (Homo sapiens), Q15139 | 200,000 tested, 0.056% active | PKD1 kinase fluorescence polarization assay;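 active = inhibition of 50% or more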;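 also: controls were vehicle for no effect and a reference inhibitor for full effect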
HSV replic up: enhancers of HSV replication in host cells, fold increase, host cell viability. HSV replication augmentation in cells. maximum fold increase. 220,000 tested, 0.005% active. AID 1956, 2009;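 active = peak rise of 1.5-fold or more in the series; tested in PC3 cells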;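 also: first round at 10 µM; read as green reporter fluorescence; hits show the peak of a series up to 25 µM; 1 = signal of infected wells without compound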
RGS16-Gao HTS: modulators of RGS16 binding to Galphao, primary screen, biochemical, human proteins, multiplexed bead flow cytometry | Regulator of G-protein signaling 16 (Homo sapiens) + Guanine nucleotide-binding protein … | bead-based flow cytometry RGS16-Galphao binding, fluorescence; actives lie on both sides | binding response (% of control), % at 10 µM | 220,000 tested, 0.38% active | AID 1441, 2008;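 active = below 25% or above 175%, edge rows of some plates excepted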;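 also: Galphao activated by GDP with aluminum fluoride before binding; 100% = wells without compound and 0% = beads without RGS; some results beyond the cut were filed as inactive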
Target sequence (O15492 whole entry, looked up): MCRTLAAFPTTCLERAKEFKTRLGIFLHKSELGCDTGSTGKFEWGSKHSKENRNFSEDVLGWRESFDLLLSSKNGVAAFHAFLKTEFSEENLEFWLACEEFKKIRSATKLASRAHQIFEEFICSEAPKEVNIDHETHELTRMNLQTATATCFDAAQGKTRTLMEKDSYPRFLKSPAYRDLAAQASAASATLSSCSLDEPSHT
Target sequence (P09471 whole entry, looked up): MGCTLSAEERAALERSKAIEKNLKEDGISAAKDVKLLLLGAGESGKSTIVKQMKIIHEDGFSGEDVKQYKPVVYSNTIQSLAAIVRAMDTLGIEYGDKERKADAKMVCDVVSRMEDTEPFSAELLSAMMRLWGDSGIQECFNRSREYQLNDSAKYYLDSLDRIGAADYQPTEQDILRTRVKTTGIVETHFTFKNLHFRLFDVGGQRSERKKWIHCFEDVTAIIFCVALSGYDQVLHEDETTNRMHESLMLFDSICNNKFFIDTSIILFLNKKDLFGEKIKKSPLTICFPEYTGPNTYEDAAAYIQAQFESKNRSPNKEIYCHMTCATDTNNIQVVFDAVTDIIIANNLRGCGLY
GALR2 ag: GALR2 receptor agonists, primary screen, cell-based. activation, %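 (tested at 5 µM)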. 140,000 tested, 0.48% active. GALR2-expressing cells, agonist activation read-out. Galanin receptor type 2 (Homo sapiens), O43603;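 active = above mean plus 3 SD of all compounds, about 5% in these data, not always enough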;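 also: 0% = vehicle buffer wells and 100% = reference agonist at full effect; tested in CHO reporter cells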
Target sequence (O43603 whole entry, looked up): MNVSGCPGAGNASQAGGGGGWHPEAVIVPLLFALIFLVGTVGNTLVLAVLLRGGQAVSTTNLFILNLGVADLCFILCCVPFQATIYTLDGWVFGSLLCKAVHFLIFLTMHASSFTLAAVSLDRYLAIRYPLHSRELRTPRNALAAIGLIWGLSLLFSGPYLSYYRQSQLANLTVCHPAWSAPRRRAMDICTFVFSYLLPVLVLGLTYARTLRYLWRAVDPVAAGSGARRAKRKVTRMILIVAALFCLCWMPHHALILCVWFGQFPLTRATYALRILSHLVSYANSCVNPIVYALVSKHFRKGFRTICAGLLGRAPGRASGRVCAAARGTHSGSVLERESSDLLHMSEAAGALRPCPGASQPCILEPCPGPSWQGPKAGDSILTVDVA
Insulin prom inh: inhibitors of insulin promoter-driven GFP, primary screen, imaging, TRM-6 cells (human fetal islet line), eGFP reporter, cell count; reporter expression induced with tamoxifen; inhibition, % at 2 µM; 130,000 tested, 0.9% active; AID 1273, 2008;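 active = inhibition above the mean plus 3 SD, with well images judged a real hit on visual review, cut at about 60% in these data, passing the limit was not always enough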
Insulin prom inh cell count: second read-out of Insulin prom inh, no call of its own (marks repeat the call); normalized cell count, %; measured here: cell count, toxicity; reference of the scale not given here;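 cells exposed to compound for 48 h; stained nuclei by imaging scaled within each plate; lower means fewer cells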
HSV replic up primary fold: further read-out of HSV replic up, marked with its call; fold increase; compound at 10 µM; measured here: primary screen fold increase 10 uM; tested in PC3 cells;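 GFP signal in the first replicate; 1 = infected wells without compound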
The depositor's hits bear a star; i = inactive; . = not tested or not shown.

SMILES,PKD1 inh,HSV replic up,HSV replic up primary fold,RGS16-Gao HTS,GALR2 ag,Insulin prom inh,Insulin prom inh cell count
CCCCNC(=O)c1sc(=S)n2c1[nH]c(=O)c1ccccc12,-1,i,0.92,96,-3.0,.,.
CCc1cccc(C)c1NC(=O)c1cc(C)oc1C,-4,i,1.1,100,-1.8,38,83
CC(C)OP(=O)(OC(C)C)C(Nc1ccccc1)c1ccc2c(c1)OCO2 (centres undefined),-7,i,1,105,0.4,.,.
O=C(/C=C\c1ccccc1)Nc1nccs1,-1,i,0.9,103,-1.8,58,115
Cc1ccc(-c2cc(C(=O)Nc3cc(C)ccc3C)[nH]n2)c(O)c1,-4,i,0.89,123,2.3,55,124
O=C(NCc1ccccn1)c1ccc(-c2ccccc2)cc1,-4,i,0.88,116,.,.,.
COc1cccc(C(=O)NC2=NCCS2)c1OC,-2,i,0.94,98,-1.0,-48,125
N=C1C(c2nc(-c3ccc(Cl)cc3)cs2)=C(O)CN1NC(=O)c1ccc(O)cc1,.,i,1.1,83,.,.,.
O=C(CSc1ccc(-c2ccco2)nn1)NCc1ccc(F)cc1,2,i,0.89,103,-2.5,-55,117
Cc1ccc2nc(-c3ccccc3)cc(C(=O)N3CCc4ccccc4C3)c2c1,-3,.,.,98,-0.8,31,137
Cc1cc(NC(=O)c2cc3ccccc3o2)cc(C)c1OCC(=O)N1CCOCC1,7,i,1.1,102,-0.2,-20,125
O=c1[nH]c(CN2CCN(Cc3ccc4c(c3)OCO4)CC2)nc2ccccc12,2,i,1.1,96,0.1,-3,185
CC(C)CCn1c(Oc2ccc(Cl)cc2)nc2c1c(=O)n(C)c(=O)n2C,-4,i,0.95,104,-0.5,-36,157
O=C(C[n+]1ccc2ccccc2c1)c1ccc(NC(=O)c2ccccc2)cc1,-6,i,1,112,.,.,.
Cc1ccc(OCC(=O)Nn2cnc3ccccc32)cc1,-4,i,0.94,82,-2.6,65,74
Cn1c(=O)c(C(=O)CN2CCN(S(=O)(=O)c3ccccc3)CC2)c(N)n(Cc2ccccc2)c1=O,-6,i,0.84,96,-0.9,-57,7
C/C(=N\NC(=O)CN1CCOCC1)C(C)(C)C,-5,i,0.82,100,-2.7,-8,98
CCn1nnnc1SCC(=O)NC1CCCC1,-10,i,1,95,-2.5,3,137
Cc1ccccc1NC(=S)N1CCCN(Cc2ccc(F)cc2)C1,-9,i,0.92,99,.,29,84
Cc1cccc2sc(NNC(=O)c3ccc(S(=O)(=O)N4CC(C)CC(C)C4)cc3)nc12 (centres undefined),-5,i,0.69,.,33*,57,116
C=CCSC1=Nc2sccc2C2=NC(=O)CN12,-15,.,.,109,-1.3,14,99
Cc1c(Cl)c([N+](=O)[O-])nn1Cc1ccc(C(=O)N/N=C\c2cc(Cl)ccc2O)o1,-6,i,0.67,93,-1.9,62,40
CCOC(=O)C1=C(C)NC(C)=C(C(=O)OCC)C1c1ccc(C)o1,.,i,1.1,92,.,.,.
CC(=O)OC(C(=O)NC1CCCCC1)c1cccc(F)c1 (centres undefined),2,i,0.99,96,.,.,.
CCOC(=O)c1oc2c(CN3CCN(C)CC3)c(O)ccc2c(=O)c1-c1ccc(Br)cc1,-1,i,0.94,142,-1.1,3,39
Cn1c(SCC(=O)c2ccc(F)cc2)nnc1-c1ccccn1,.,i,0.93,92,.,.,.
O=[N+]([O-])c1cccc(/C([O-])=C(/C(=S)Nc2ccccc2F)[n+]2ccccc2)c1,-1,i,1,96,.,.,.
NNC(=O)c1cnn(Cc2ccccc2)c1N,7,i,1,109,-2.3,53,174
COC(=O)C1=C(C(=O)c2ccccc2)C(c2ccc(O)c(OC)c2)n2nnnc2N1 (centres undefined),2,i,1.1,99,-3.5,11,88
CSc1ccc(CN2CCC(CO)(Cc3ccc(Cl)cc3)CC2)cc1,4,i,1,102,.,.,.
CC[C@]12CCCN3CCc4c(n(c5ccccc45)C(=O)C1)C32 (some centres undefined),.,i,0.75,102,.,.,.
O=C(Nc1ccc(O)cc1)c1cccc(Oc2ccc([N+](=O)[O-])cc2)c1,10,i,0.65,104,.,-33,130
Cc1ccc(C(=O)NCC(=O)OCC(=O)c2ccc3c(c2)OCCO3)cc1C,-2,i,1,98,-2.2,.,.
CCCOC(=O)c1[nH]c2c(c1C)C(=O)CC(c1cccs1)C2 (centres undefined),-4,i,0.58,108,-0.9,-87,22
O=C(CN1CC(c2ccccc2)CC1=O)Nc1ccc2c(c1)OCO2 (centres undefined),6,.,.,98,0.1,30,119
COc1ccc(/C=C2\SC(=S)N(CCCC(=O)NNC(=O)c3ccccc3O)C2=O)cc1,3,i,0.91,105,.,0,80
O=[N+]([O-])c1cc2c(cc1/C=N/n1c(-c3ccccc3)n[nH]c1=S)OCO2,-1,i,0.92,102,-3.3,46,57
COc1ccc(C(=O)NC(=S)N2CCCCC2)cc1[N+](=O)[O-],-9,i,0.98,96,-0.2,8,121
CC(=O)OCC(=O)Nc1cc(S(=O)(=O)N2CCCCCC2)ccc1Cl,0,i,0.97,101,.,-33,120
COc1ccc(C)cc1-n1c(SCC(=O)Nc2cc(C)on2)nc2ccccc2c1=O,-8,i,0.93,102,.,.,.
CC(C)C[C@@H]1NC(=O)[C@H](Cc2ccc(O)cc2)NC(=O)c2cc([N+](=O)[O-])cc(I)c2NCCC[C@@H](C(N)=O)NC1=O,-6,i,0.96,98,-2.6,-5,77
O=C(Nc1ccccc1N1CCOCC1)c1cccs1,-8,i,0.98,104,-4.4,20,110
CCOC(=O)/C(=N\Nc1ccccc1Cl)N1CCN(c2ccccc2OC)CC1,-8,i,0.96,114,.,33,58
COC(=O)c1ccc(Cl)c(NC(=O)CSc2ncn[nH]2)c1,1,i,1,96,-1.5,3,137
Cc1n[nH]c(C)c1NC(=O)c1cc([N+](=O)[O-])ccc1Cl,3,i,0.75,103,.,40,84
O=C(c1ccc(S(=O)(=O)c2ccccc2)cc1)N1CCc2ccccc2C1,-7,i,1.1,118,-0.6,-6,98
NS(=O)(=O)c1ccc(CCNC(=O)c2cccnc2)cc1,-12,i,0.97,98,-2.8,-253,69
Cc1ccc(S(=O)(=O)C2(C(=O)N3CCCCCC3)CC2)cc1,-3,i,0.95,102,-2.1,-130,103
O=S(=O)(Cc1ccccc1)NCc1ccccn1,-19,i,0.97,87,-4.8,-107,74
O=C(CNCCc1ccc(Cl)cc1Cl)NCc1ccco1,-6,i,1.1,109,.,38,118
Cc1ccc2cc(C)c3nnc(SCC(=O)N4CCCc5ccccc54)n3c2c1C,16,.,.,106,-1.5,-56,105
CCOc1ccc(-c2nnn(CC#N)n2)cc1OC,-6,i,1.1,99,-0.6,47,99
Cc1nc2nc(-c3ccc(Cl)cc3)cn2nc1C,1,.,.,102,2.1,0,103
Cc1ccc(CNC(=O)[C@H](C)[C@H]2C[C@]2(C)[C@H](NC(=O)OCc2ccccc2)c2ccccc2)o1,1,i,0.84,93,-3.3,-64,51
C=CCOC(=O)C1=C(C)OC(N)=C(C#N)C1c1ccc2c(c1)OCO2 (centres undefined),10,i,0.97,106,-1.9,21,149
O=Cc1c(-[n+]2ccccc2)nc([O-])n1-c1ccccc1,-6,i,1.1,108,-2.2,-21,97
COCCn1nnnc1C(c1ccccc1)N1CCN(C)CC1 (centres undefined),-13,i,0.94,116,-1.1,.,.
Cc1cc(=O)oc2cc(OCc3ccc(C(=O)OCC(=O)Nc4ccccc4OC(F)F)cc3)ccc12,5,i,0.96,123,-2.4,40,86
CCN(CC)S(=O)(=O)c1ccc(C(=O)Nc2ncn(Cc3ccccc3)n2)cc1,-12,i,1.2,98,-1.4,18,186
Oc1ccc(Cl)cc1CNn1cnnc1,-2,i,1,98,.,56,53

An excerpt taken from the entries so far, for reference:
SMILES,PKD1 inh,HSV replic up,HSV replic up primary fold,RGS16-Gao HTS,GALR2 ag,Insulin prom inh,Insulin prom inh cell count
CC(=O)OCC(=O)Nc1cc(S(=O)(=O)N2CCCCCC2)ccc1Cl,0,i,0.97,101,.,-33,120
COc1ccc(C)cc1-n1c(SCC(=O)Nc2cc(C)on2)nc2ccccc2c1=O,-8,i,0.93,102,.,.,.
CC(C)C[C@@H]1NC(=O)[C@H](Cc2ccc(O)cc2)NC(=O)c2cc([N+](=O)[O-])cc(I)c2NCCC[C@@H](C(N)=O)NC1=O,-6,i,0.96,98,-2.6,-5,77

The listing continues.
SMILES,PKD1 inh,HSV replic up,HSV replic up primary fold,RGS16-Gao HTS,GALR2 ag,Insulin prom inh,Insulin prom inh cell count
O=C1c2ccccc2C(=O)N1CCSc1n[nH]c(=S)s1,-6,.,.,98,-2.6,43,101
O=c1c2c3c(sc2n2cnnc2n1Cc1ccccc1)CN(Cc1ccccc1)CC3,-3,i,1,.,-0.7,44,129
CCOc1ccccc1NC(=O)C(=O)N/N=C/c1ccc([N+](=O)[O-])cc1,0,i,0.98,104,.,.,.
CC1(C)Cc2c(cnn2-c2ccccc2)-c2c1c1ccccc1n2CC(O)CCl (centres undefined),-11,i,0.92,106,-0.4,0,94
c1ccc2c(N3CCOCC3)nc(N3CCOCC3)nc2c1,-1,i,0.98,102,-1.3,20,138
COc1ccc(CCCc2nnc(SCC(=O)Nc3ncc(C)s3)o2)cc1,0,i,0.9,97,0.8,.,.
COc1cccc(COCC(O)Cn2cnc3cc(C)c(C)cc32)c1 (centres undefined),7,i,0.99,101,.,.,.
Cc1cc(-c2ccco2)n(CC(=O)NCCCc2ccccc2)n1,-3,i,0.84,85,-2.4,-50,80
NC(=O)c1nnsc1Sc1c(C(N)=O)nnn1-c1cccc(N)c1,3,i,0.91,100,.,.,.
CC(C)c1nc(SCC(=O)N2CCOCC2)c2c(=O)n(C)c(=O)n(C)c2n1,-9,i,0.9,101,0.0,.,.
COc1ccc(C2=NNC(=O)CC2)cc1,-1,i,1.1,105,-0.7,14,58
COc1ccc(-n2c(C)c3c(OC)cccc(=O)c3c2C)cc1,2,.,.,95,-0.8,19,74
O=C(c1ccc(COc2ccc(Cl)cc2)cc1)N1CCCCC1,1,i,0.84,101,.,.,.
Cc1cccc(NC(=O)COC(=O)c2cccc3c2C(=O)c2ccccc2C3=O)c1C,3,i,0.86,102,-1.0,.,.
O=C(COC(=O)C12CC3CC(CC(C3)C1)C2)Nc1nccs1,-5,i,0.97,100,.,.,.
O=C(COC(=O)Cn1cnc2ccccc21)NCCc1ccc(Cl)cc1,1,i,1.1,96,-1.9,31,116
Cc1ccccc1NC(=O)Cn1c(NCC(C)O)nc2ccccc21 (centres undefined),-7,i,0.98,97,-0.8,6,167
CCC1(C)Cc2ccccc2-c2c1c(=O)n(Cc1ccccc1)c1nnnn21 (centres undefined),-6,i,0.93,107,-1.0,-15,59
O=C(c1ccccc1)N(C1=NCCCCS1)c1ccccc1,-5,i,0.94,95,-1.4,.,.
Cc1cc(Nc2ccccc2O)c2ccccc2n1,-1,i,0.92,111,.,5,180
Cc1cc(-c2nnc(SCC(=O)Nc3ccccc3C(F)(F)F)o2)c(C)n1-c1ccccc1,9,i,0.98,101,-1.5,20,137
COc1ccc(C(c2sc3ncnn3c2O)N2CCN(c3ccccc3F)CC2)cc1OC (centres undefined),-9,i,0.93,101,-0.5,.,.
CC(=O)Oc1cccc(N2C(=O)C3CC=C(Cl)CC3C2=O)c1 (centres undefined),9,i,0.98,108,-0.2,-33,68
Fc1ccccc1N1CCN(c2cnc3ccccc3n2)CC1,5,i,0.97,103,-1.6,.,.
O=C(Cc1ccc(Cl)cc1)Nc1ccc2oc(-c3ccncc3)nc2c1,1,i,0.68,98,-2.9,-83,103
COc1ccc(OC)c(N2C(N)=NC(N)=NC23CCCC3)c1,7,i,0.85,100,-2.3,.,.
COC(=O)c1cc2sccc2n1CC(=O)Nc1ccc(OC)c(OC)c1OC,-11,i,0.88,90,-1.2,-35,52
CC1CCN(C(=O)c2ccc(CSc3nc4ccncc4n3Cc3ccc(F)cc3)cc2)CC1,17,i,0.99,102,0.4,-20,98
